Screens as filed in PubChem BioAssay.
HPGD block: blocks human HPGD enzyme activity. Potency, µM, for the others: at the top dose activity change, negative = inhibition, actives largely listed as inhibitors. purified HPGD, NADH fluorescence kinetic, PGE2 substrate. P15428. 150,000 tested, 4.3% active; active = well fitted inhibition curve with a large enough effect (not every such curve was filed as active); inconclusive = small, poorly fitted or top-dose-only effect, or another doubt; inactive = no such curve, though single readings can be large or run the other way;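 further: top concentration of the series not given in the record; plate controls included wells without enzyme; inactives centre near -10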
Target sequence (P15428 whole entry, looked up): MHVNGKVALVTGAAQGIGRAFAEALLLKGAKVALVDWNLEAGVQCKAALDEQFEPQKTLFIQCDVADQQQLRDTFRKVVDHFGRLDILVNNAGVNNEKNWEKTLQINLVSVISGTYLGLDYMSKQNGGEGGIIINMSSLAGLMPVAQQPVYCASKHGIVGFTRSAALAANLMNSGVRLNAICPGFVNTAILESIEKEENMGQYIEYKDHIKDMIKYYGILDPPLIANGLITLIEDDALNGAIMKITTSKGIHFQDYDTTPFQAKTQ
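20 nM HPGD preincubated 15 min at room temperature with compound in 50 mM Tris-HCl pH 8, 0.01% Tween 20. Started with 1 mM NAD+ and 30 uM prostaglandin E2; NADH fluorescence (360/450 nm) read 5 times over 30-s intervals, last minus first.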
Numbers without * were called inactive; ? = inconclusive. On the % scale 0 is the no-effect control and ±100 the full control effect; potency means the concentration at half of the fitted maximal effect. A portion of the library; rates above refer to the full screens.

Compound	HPGD block
CC(C)NC(=O)CCCc1cn(C)c2ccccc12	?
CCn1cc(C(=O)NCC2CCCO2)c(=O)c2cc(F)c(N3CCN(C)CC3)cc21 (centres undefined)	-15.2%
Cc1ccc(S(=O)(=O)c2nc(-c3cccs3)oc2SCC(N)=O)cc1	-18.0%
NC(=O)CSc1nnc(Cc2cccs2)n1C1CCCCC1	-10.9%
O=C1c2ccccc2C2NC(=O)C3(CCCCC3)N12 (centres undefined)	-0.3%
CC(=O)O[C@H]1C2OC(=O)C(C)=C2[C@@H]2OC(=O)[C@]3(CCC4OC41C)OC23 (some centres undefined)	-7.2%
Cc1ccsc1C(=O)OCC(=O)NCC1CCCO1 (centres undefined)	-28.3%
CCOc1cc(CNCCCN2CCOCC2)ccc1OCC(=O)Nc1cccc2ccccc12	-7.9%
Clc1cccc(Cl)c1Cn1cnc2c(N3CCCCCC3)ncnc21	?
O=C(NCc1ccco1)c1ccccc1NS(=O)(=O)c1cccs1	-18.1%
CC/C=C\C[C@H]1C(=O)CC[C@@H]1CC(=O)O	1.8%
O=C(CCC1CCCC1)Nc1ccon1	-16.1%
COc1ccc(-c2nn(CCC(=O)O)cc2/C=C2\SC(N)=NC2=O)cc1	11.2µM*
NC(=O)CSc1nnc2n(-c3ccccc3)c(=O)c3c4c(sc3n12)CCCCC4	-0.5%
O=C1CC(N2CCN(Cc3ccc4c(c3)OCO4)CC2)C(=O)N1CCc1ccccc1 (centres undefined)	-8.5%
Cc1ccc(/C=C/C(=O)c2ccccc(=O)c2O)cc1C	-26.8%
Cc1ccc(S(=O)(=O)Cc2nc3ccccc3c(=O)[nH]2)cc1	-14.3%
CCOC(=O)c1c(C)nc2sc3c(=O)n(-c4ccc(OC)cc4)cnc3c2c1-c1ccc(OC)cc1	-27.8%
CCCN1C(=O)c2ccc(C(=O)NCc3ccco3)cc2C1=O	-8.5%
CN1/C(=C/C(=O)c2ccc(Cl)cc2)Sc2cc3c(cc21)OCO3	-13.9%
CCOC(=O)c1cc(=O)n2nc(-c3ccccc3F)nc2s1	?
CCOC(=O)c1nnn(-c2nc(N3CCCC3)nc(N3CCCC3)n2)c1-c1ccccc1	-1.7%
CCCc1cc(=O)n2[nH]c(NCc3ccccc3F)nc2n1	-7.5%
O=C(NNc1nc(-c2ccccc2)c2cc(Br)ccc2n1)c1ccc(S(=O)(=O)N2CCOCC2)cc1	-14.8%
O=C(Nc1cccc(Cl)c1)c1ccc(-n2cncn2)c([N+](=O)[O-])c1	-0.1%

Later entries
Compound	HPGD block
CCN(c1ccccc1)S(=O)(=O)c1ccc2[nH]cc(C(=O)NCCOC)c(=O)c2c1	?
Cc1n[nH]c(=S)n1-c1cccc(Cl)c1	-25.9%
COc1ccc(C(=O)c2c[nH]cc2-c2ccccc2)cc1	-2.4%
O=C(OCC(=O)N1CCOCC1)c1ccc[nH]c1=O	-3.6%
CCOC(=O)CSc1nc2sc(C)c(C)c2c(=O)[nH]1	3.55µM*
Cc1csc2nc(CSc3nc4ccccc4o3)c(Br)n12	14.1µM*
CCCCC(=O)N1CCCC(C(=O)OCC)C1 (centres undefined)	-7.2%
COc1ccccc1CNC(=O)c1cnc2sccn2c1=O	-22.4%
Nc1ncnc(Sc2ccccc2)c1[N+](=O)[O-]	-17.7%
CCN(CC)c1ccc2c(C)c(CN3CCOCC3)c(=O)oc2c1	?
CC1CCCC(C)N1C(=O)Cn1c(SCC(=O)NCc2ccc3c(c2)OCO3)nc2ccccc21 (centres undefined)	-8.9%
Cn1c(=NC(=O)c2cnccn2)sc2ccccc21	-8.2%
CCOC(=O)N1CCN(C(=O)CCn2c(=S)[nH]c3cc(OCC)c(OCC)cc3c2=O)CC1	-12.6%
O=C(OCc1c(Cl)nc2sccn12)c1cc2c(s1)CCCC2	-14.8%
NC(=O)CCC(NS(=O)(=O)c1ccc(Cl)cc1)C(=O)NCc1ccccc1Cl (centres undefined)	1.9%
N#C/C(=C\c1ccc(OC(=O)c2ccccn2)cc1)C(N)=O	-2.3%
Nc1c(C(=O)NCc2ccc3c(c2)OCO3)c2nc3ccccc3nc2n1CCCN1CCOCC1	?
COC(=O)CSc1nc(C)cc(C(F)(F)F)c1C#N	-1.3%
Cc1cccc(CNc2ccnc(-c3ccoc3)n2)c1	?
COc1cc(OC)cc(OCC(O)Cn2ccnc2C)c1 (centres undefined)	?
Cc1ccc(N(CC(=O)Nc2cc(Cl)ccc2Oc2ccccc2)S(C)(=O)=O)cc1C	-13.0%
COc1ccc(S(=O)(=O)NCCSCc2ccco2)cc1OC	-11.0%
CCOc1ccc(N(C(C)C(=O)N/N=C(\C)C(C)(C)C)S(C)(=O)=O)cc1 (centres undefined)	-0.3%
CC1Cc2ccccc2N1C(=O)CN(C)S(=O)(=O)c1cccc2cccnc12 (centres undefined)	-4.2%
COc1c(Cl)ccc(Cl)c1C(=O)NC(=O)N1CCOCC1	-2.8%

Brought forward from above: two compounds; new compounds follow.
Compound	HPGD block
CC1Cc2ccccc2N1C(=O)CN(C)S(=O)(=O)c1cccc2cccnc12 (centres undefined)	-4.2%
COc1c(Cl)ccc(Cl)c1C(=O)NC(=O)N1CCOCC1	-2.8%
C=CCNC(=O)/C(=C/c1ccccc1OCC)NC(=O)c1ccccc1	0.3%
O=C(Nc1cccnc1)c1cc(-c2cccs2)on1	-17.7%
CCOC(=O)c1nnc(-c2ccc(C)cc2)nc1Sc1ccc(Cl)cc1	-10.7%
COCCNC(=O)C1CCC(=O)N(c2ccc(OC)cc2)C1c1ccc(OC)c(OC)c1 (centres undefined)	0.2%
CC(=O)c1cccc(NC(=O)C2CCCN2S(=O)(=O)c2cccc3cccnc23)c1 (centres undefined)	-21.8%
COC(=O)[C@@]1(Cc2ccc(OC)cc2)[C@H]2c3cc(C(=O)N4CCCC4)n(Cc4ccc(O)c(OC)c4)c3C[C@H]2CN1C(=O)c1ccccc1	-7.9%
CCN1CCN(C(c2ccccc2)c2nnnn2CCc2ccc(OC)c(OC)c2)CC1 (centres undefined)	-7.0%
c1ccc2c(CSCc3nc4ccccc4[nH]3)cccc2c1	-6.2%
Cc1nc2ccccc2c2nc(NC(=O)Cc3ccccc3)nn12	-11.7%
O=C(Nc1ccc(Cl)cc1)NC1CCS(=O)(=O)C1 (centres undefined)	-5.4%
CC(=O)N1CCC2(CCN(Cc3ccccc3)CC2)CC1	0.4%
COC(=O)c1ccc(OC)c(CSc2nnc(COc3ccc(OC)cc3)o2)c1	-26.0%
CN(/N=C/c1cccs1)c1cc(=O)n(C)c(=O)[nH]1	-19.3%
O=C(COC(=O)/C=C/c1ccc(Cl)cc1Cl)Nc1cc(C(F)(F)F)ccc1N1CCOCC1	-8.4%
O=C(NCc1ccccn1)/C(=C/c1ccco1)NC(=O)c1ccccc1	-9.3%
c1ccc(Cn2ncc3c(N4CCOCC4)ncnc32)cc1	-20.6%
Cc1c(N=Cc2cccs2)c(=O)n(-c2ccccc2)n1C	?
COc1cccc(C(=O)Nc2cc(=O)n(C)c(=O)n2C)c1OC	-6.4%
N=C(N)Cc1ccccc1Sc1ccccc1	-0.6%
CC1(C)CC(=O)C(C=NCC(O)c2ccccc2)=C(O)C1 (centres undefined)	-11.9%
c1ccc(OCCOCCN2CCOCC2)cc1	2.9%
COc1cc(-c2nnc(CSc3nnc(Nc4ccc(Oc5ccccc5)cc4)s3)o2)cc(OC)c1OC	-13.1%
COc1ccc(-c2nnc(SCC(=O)Nc3nc4ccccc4s3)n2C)cc1	1.2%
Cc1nc(SCC(=O)Nc2c(C)nn(C)c2C)c2cnn(-c3ccccc3)c2n1	-5.8%
CCC(C)OC(=O)C1=C(C)OC23OC(N)=C(C#N)C12C(=O)c1ccccc13 (centres undefined)	-18.3%

(continued)
Compound	HPGD block
COc1ccc2c(c1-c1c3c(cc(Br)c1OC)CCCC3)CCCC2	-9.9%
CCN1CCN(c2ccc(NC(=O)Cc3ccccc3)cc2)CC1	-0.2%
CCc1ccc2c(c1)cc(CN(C(=S)Nc1cccc(C)c1)C1CC1)c1nnnn12	-7.1%
NCCC[C@@H](CC(=O)N[C@@H]1CCCC[C@H]1C(=O)N[C@H](CC(=O)N[C@@H](CCC(=O)O)CC(=O)O)Cc1c[nH]c2ccccc12)NC(=O)C[C@H](CO)NC(=O)[C@@H]1CNCC[C@H]1N	-5.6%
O=C(COC(=O)c1sc2cc(F)ccc2c1Cl)Nc1ncc(Cl)cc1Cl	-10.5%
COc1ccc(CCNC(=O)c2ccn[nH]2)cc1OC	-3.3%
O=C(Nc1cc(S(=O)(=O)N2CCCC2)ccc1OCC(F)(F)F)c1ccccc1F	-4.3%
CN1CCN(C(=O)Cn2c(=O)oc3cc(S(=O)(=O)NCc4ccccc4)ccc32)CC1	-28.3%
CC(CNC(=O)c1cncc(O)c1)NC(=O)c1cncc(O)c1 (centres undefined)	-23.7%
N#CC1=C(SCC(N)=O)NC(=O)CC1c1ccccc1Cl (centres undefined)	-4.0%
CCOc1[nH]n(-c2ccc(Cl)cc2)c(=O)c1C=Nc1ccc(O)cc1	-15.9%
Oc1ccc(NC(=S)Nc2ccccc2)cc1	-18.2%
O=C(c1ccccc1-c1nc2ccccc2[nH]1)N1CCOCC1	-0.2%
O=C1C(=O)c2ccccc2C(O)=C1Cc1ccccc1	-6.9%
COc1ccccc1NC(=O)NCC(=O)Nc1ccc(F)c(F)c1	-13.8%
Cc1nc(S/C(=C/c2ccc(-c3ccc(Cl)cc3)o2)C(=O)O)n[nH]1	?
O=C(/C=N/O)NCCN1CCCCC1	-9.0%
CC(=O)NC(=S)Nc1ccc(NC(=O)COc2ccc(Cl)cc2Cl)cc1	-23.1%
CC1(C)CC(=O)c2cc(OCC(=O)NCCN3CCCc4ccccc43)ccc2O1	?
O=C(N=Nc1c(O)[nH]c2ccc(Cl)cc12)c1cc(-c2cccs2)nc2ccccc12	-7.6%
OB(O)c1ccc(Br)cc1	-3.6%
COC(=O)N1CN(C(=O)OC)CN(C(=O)OC)C1	-0.2%
COc1ccc(S(=O)(=O)Nc2cccc(C)n2)c2ccccc12	-13.6%
O=C(c1ccco1)N1CCN(C(=O)C2CCCO2)CC1 (centres undefined)	-8.6%
CC(C)Sc1nc(SCC(=O)NCc2ccco2)c2c3c(sc2n1)COC(C)(C)C3	?

(next part)
Compound	HPGD block
COc1ccccc1CNC(=O)CCn1c(=O)sc2ccccc21	2.5%
Cc1nc2ccccc2nc1CSc1nncs1	-13.0%
O=c1[nH]cnc2c1sc(=S)n2-c1ccccc1	14.1µM*
O=C(CSc1ncn[nH]1)N1CCN(c2nnc(-c3ccccc3)c3ccccc23)CC1	-14.7%
O=C(CN1CCCC1)Nc1ccc(NC(=O)Nc2ccccc2)cc1	-1.7%
O=C(COc1ccc(Cl)cc1)N1CCN(S(=O)(=O)c2ccc(Cl)cc2)CC1	-6.4%
COc1ccc(C2C(C(=O)OCC(=O)Nc3ccc(C)cc3)CCC(=O)N2c2ccc(OC)cc2)cc1 (centres undefined)	-16.7%
CCC(Sc1nc2ccccc2c(=O)[nH]1)C(=O)O (centres undefined)	-15.3%
Cc1ccc(C)c2[nH]c(=O)c(CN(CCN3CCOCC3)Cc3nnnn3CC3CCCO3)cc12 (centres undefined)	-15.1%
FC(F)Sc1ccc(-n2cc(-c3ccccc3)[n+]3c2CCC3)cc1	-10.3%
O=C(c1cccc(NS(=O)(=O)c2ccc(F)c(F)c2)c1)N1CCN(Cc2ccccc2)CC1	-2.8%
Cc1ccc2c(c1)N(Cc1ccc3c(c1)OCO3)C(=O)C(C)O2 (centres undefined)	-14.9%
Cc1[nH]c2ccccc2c1C(=O)CSc1ccc(F)cc1	-18.5%
COc1ccc(C2C=C(c3ccc(Br)s3)Nc3ncnn32)cc1OC (centres undefined)	-24.5%
CCOC(=O)c1sc(NC(=O)c2sccc2C)cc1C	?
Cn1c(SCC(=O)N2c3ccccc3Sc3ccc(Cl)cc32)nnc1-c1ccco1	-12.9%
Cc1nn2c3ccccc3n(C)c2nc1=O	-9.9%
CCOc1ccc(NC(=O)c2cccnc2Cl)c([N+](=O)[O-])c1	-3.9%
COc1ccc(S(=O)(=O)N(C)C)cc1NCC(=O)Nc1ccc(Br)cc1F	-13.7%
COc1c2c(c3c(c1CCC(=O)O)OC(C)(C)C=C3)OC(C)(C)C=C2	0.0%
Cc1ccc(-c2nnc(SCC(=O)N3CCCc4ccccc43)n2N)cc1	-5.9%
CC1CCCC(C)N1C(=O)Nc1cccc(Cl)c1 (centres undefined)	-29.2%
CCCCc1[nH]nc2c1C1(C(=O)N(CC)c3ccccc31)C(C#N)=C(N)O2 (centres undefined)	-8.2%
CC(=O)Nc1ccc(N2CCCCC2)cc1	-12.4%
CCOc1ccccc1N(CC(=O)O)S(=O)(=O)c1ccc(C)cc1	-5.7%

Continued; the last 2 above are carried over.
Compound	HPGD block
CC(=O)Nc1ccc(N2CCCCC2)cc1	-12.4%
CCOc1ccccc1N(CC(=O)O)S(=O)(=O)c1ccc(C)cc1	-5.7%
C/C(=N\NC(=O)c1ccc(CSc2cccc3cccnc23)cc1)C1CCCCC1	?
C=CCn1c(SCC(=O)NCc2ccco2)nc2sc3c(c2c1=O)CCC3	-28.3%
CCOc1ccc(OC(=O)C(CCS(C)(=O)=O)N2C(=O)c3ccccc3C2=O)cc1 (centres undefined)	-23.4%
Cc1nc2cccc(C(=O)NCc3ccccc3)c2o1	-13.9%
